# gsp antagonist: antagonizes gsp, the McCune-Albright syndrome mutation. Potency, µM (top dose mostly 76.9 µM), for the others: at the highest dose activity change, negative = inhibition, hits mostly inhibitors. AID 624288. gsp-mutant cells, cAMP HTRF, 30 min; control for the full effect not named in the record. actives 0.4% (n = 340,000); active = falling curve of any shape with a large fitted effect; inconclusive = falling curve, mostly with a smaller effect; inactive = flat or rising curve; cell line not stated here;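 further: intracellular cAMP measured with PDE inhibitor Ro 20-1724 present during compound exposure; potency means the concentration at half of the fitted maximal effect; on the % scale 0 is the no-effect control and ±100 the full control effect; nearly all actives have a fitted effect of over 65% in size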
#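 HTRF cAMP read-out (cAMP-d2 plus anti-cAMP antibody-K in lysis buffer, 30 min RT). Before lysis, cells are exposed to compounds with […] for 30 min at 37C in DPBS containing Ca/Mg, BSA and Tween 20.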
# Six1-Eya2 inh: inhibitors of human Six1/Eya2 interaction; activity change, % (test concentration not listed); actives 0.56% (n = 360,000); AID 651725; AlphaScreen GST-Six1/His-Eya2 binding, biochemical; hits give low values; control for the full effect not named in the record; Q15475+O00167; in the data active = activity change below about -65%; inconclusive = about -30% to -65%; inactive = above about -30%; further: on the % scale 0 is the no-effect control and ±100 the full control effect; compound concentration not given in the record
# Target sequence (O00167 whole entry, looked up): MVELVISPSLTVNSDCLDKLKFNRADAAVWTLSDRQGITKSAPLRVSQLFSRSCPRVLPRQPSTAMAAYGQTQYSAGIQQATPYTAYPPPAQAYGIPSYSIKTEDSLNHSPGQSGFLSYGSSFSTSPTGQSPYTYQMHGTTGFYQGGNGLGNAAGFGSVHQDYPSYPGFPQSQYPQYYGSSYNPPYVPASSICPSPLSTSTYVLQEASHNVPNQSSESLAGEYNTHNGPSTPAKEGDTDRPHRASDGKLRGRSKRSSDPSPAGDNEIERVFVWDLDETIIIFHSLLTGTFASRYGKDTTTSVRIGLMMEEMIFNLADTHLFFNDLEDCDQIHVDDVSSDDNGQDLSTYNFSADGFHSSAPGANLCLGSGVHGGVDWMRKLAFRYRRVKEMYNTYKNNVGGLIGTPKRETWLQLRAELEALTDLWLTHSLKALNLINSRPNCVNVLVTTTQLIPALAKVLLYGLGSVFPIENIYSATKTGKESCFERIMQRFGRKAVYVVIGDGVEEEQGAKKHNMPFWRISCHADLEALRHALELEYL
# Target sequence (Q15475 whole entry, looked up): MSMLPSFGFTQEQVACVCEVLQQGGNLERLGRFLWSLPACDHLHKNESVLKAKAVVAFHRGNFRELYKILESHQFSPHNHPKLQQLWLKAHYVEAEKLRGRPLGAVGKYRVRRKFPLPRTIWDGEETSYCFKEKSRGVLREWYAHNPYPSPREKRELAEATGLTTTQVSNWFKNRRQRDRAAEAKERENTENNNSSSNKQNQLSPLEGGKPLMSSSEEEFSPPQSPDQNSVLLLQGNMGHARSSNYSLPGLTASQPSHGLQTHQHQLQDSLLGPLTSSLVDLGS
#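 GST-Six1 + His-Eya2 (5X stock: 250/500 nM); Tris pH 8.0, 300 mM NaCl, 0.05% BSA, 0.02% Tween 20; GSH donor/Ni acceptor beads; 1 h 37 °C dark; AlphaScreen readout.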
# gsp agonist: agonists of gsp mutant (McCune-Albright syndrome); AID 624287; gsp mutant cells, cAMP HTRF, 30 min; control for the full effect not named in the record; Potency, µM (highest dose often 76.9 µM), for the others: at the highest dose activation (cAMP increase), most hits filed as activators; actives 0.13% (n = 340,000); active = well fitted activation curve with a large enough effect; inconclusive = small, poorly fitted or top-dose-only effect, or another doubt; inactive = no such curve, though single readings can be large or run the other way; cell line not stated here;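 further: phosphodiesterase inhibitor Ro 20-1724 added with compounds to block cAMP breakdown; potency means the concentration at half of the fitted maximal effect; nearly all actives have a fitted effect of over 60% in size; about a fifth of the inactives were tested at one dose only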
#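 Cells in DMEM/10% FBS with G418 were pretreated with compounds in DMSO plus […] (300 uM stock) for 30 min at 37C. cAMP was measured by HTRF (cAMP-d2 plus anti-cAMP antibody-K) after 30 min at room temperature.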
# D2 potentiator: positive allosteric modulators of human D2 dopamine receptor; actives 0.23% (n = 360,000); P14416; potentiation, % (test concentration not listed); DiscoveRx D2 beta-arrestin cells, luminescence, 90 min; 100% = 57 uM dopamine signal; active = potentiation of 50% or more; inconclusive = 30% to 50%; inactive = 30% or less;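 further: compound concentration not given in the record; tested on top of an EC20 dose of dopamine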
#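 PathHunter beta-arrestin assay in DiscoveRx D2 cells. Compounds were added with an EC20 of dopamine (50 nM final) for 90 min at 37 deg C. Luminescence was read 1 h after detection reagent, with 57 uM dopamine as the EC100 control.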
# D2 agonist: human D2 receptor agonism in beta-arrestin assay | P14416 | DiscoveRx PathHunter D2 beta-arrestin, luminescence, 90 min; 100% = 57 uM dopamine signal | activation, % (test concentration not listed) | actives 0.084% (n = 360,000) | AID 624465; in the data active = activation above about 40%; inconclusive = about 15% to 40%; inactive = below about 15%; further: compound concentration not given in the record; the text of the record calls up to 30% inactive
#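 Agonist mode: compounds alone added to overnight-plated D2 PathHunter cells for 90 min at 37 C, with 57 uM final dopamine (EC100) defining full response. Beta-arrestin recruitment detected by chemiluminescent reagent, read after 1 h at ambient temperature.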
# CtBP-E1A inh: CtBP/E1A binding inhibition; AlphaScreen GST-E1A/His-CtBP binding, 1536-well; hits give low values; control for the full effect not named in the record; actives 0.49% (n = 340,000); activity change, % (concentration not given with the values); in the data active means activity change below about -65%; inconclusive means about -30% to -65%; inactive means above about -30%; further: on the % scale 0 is the no-effect control and ±100 the full control effect
#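 Homogeneous bead-based format: GST-tagged E1A captured on glutathione donor beads, His-tagged CtBP on nickel acceptor beads; compounds precede bead addition by 2 h at 37 °C.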
# * = called active by the depositor; u = inconclusive; x = not tested or not shown; [ ] = remark or other dose.
gsp antagonist	Six1-Eya2 inh	gsp agonist	D2 potentiator	D2 agonist	CtBP-E1A inh	SMILES
-5%	-4	5%[15.4 µM]	22	3.1	-2	CN(Cc1ccco1)C(=O)CSc1nc(C2CC2)n(-c2ccccc2)n1
u	-4	-15%	-14	-1.7	x	CCn1c(SCC(=O)Nc2ccccc2OC)nc(O)cc1=O
-19%	23	u	-12	2.3	28	O=C(OCc1ccccc1Cl)c1cccnc1Cl
1%	1	6%	-28	11	-1	Oc1ccc(CNCC2COc3ccccc3O2)cc1 (configuration not stated)
9%	-5	-3%	1	1.1	x	COc1cc2c(cc1OC)C(c1ccc([N+](=O)[O-])cc1)NC(=O)C2 (configuration not stated)
-3%	0	-23%	9	-4.2	0	O=C1CC(O)(C(F)F)Oc2ccc3ccccc3c21 (configuration not stated)
2%	-8	-22%	-6	-1.9	-7	COc1cccc(NC(=O)Cn2c(CCC(=O)O)ccc2-c2cccs2)c1
4%	9	1%[15.4 µM]	-5	0.8	0	Cn1nc(N)c2c(-c3ccc(Cl)cc3)c(C#N)c(N)nc21
43%[activator]	-6	-7%	-14	-1.3	2	CC(C)(C)NC(=O)NC(=O)COC(=O)CNC(=O)c1cccc(F)c1
-9%	-1	x	21	8.1	3	O=C(COc1ccc2c3c(c(=O)oc2c1)CCC3)N[C@@H](Cc1ccccc1)C(=O)O
x	-1	x	-9	5.9	2	CSc1ccccc1-c1ccc2nccn2c1
-6%	-15	9%	-4	-0.1	-6	CS(=O)(=O)N1CCN(c2ccc([N+](=O)[O-])c(SCc3ccco3)c2)CC1
3%	23	-30%	-1	-1.7	46	COc1ccc(CCN(Cc2cccs2)S(=O)(=O)c2ccc(-n3cnnn3)c(OC)c2)cc1OC
u	-18	-9%	-19	-7.1	-15	COc1ccc(NC(=S)Nc2nc(CC(=O)Nc3ccccc3OC)cs2)cc1
2%	5	26%	-4	-4.4	-2	CC(=O)c1ccc(NC(=O)Nc2ccc(Br)cc2C)cc1
-1%	-1	1%	4	-0.3	1	O=C(c1ccc(Br)o1)N(c1ccc(Br)cc1)C1C=CS(=O)(=O)C1 (configuration not stated)
10%	3	-38%	4	12	3	O=C(Nc1ccc(S(=O)(=O)N2CCOCC2)cc1)c1ccc(F)cc1
0%	1	11%	-9	-3.5	2	COC(=O)Cc1c(C)c2ccc(OC3CCCCC3=O)cc2oc1=O (configuration not stated)
3%	0	1%	-3	-4.9	3	CCc1noc(C)c1C(=O)N1CCCC(CCC(=O)NCc2ccc(F)c(F)c2)C1 (configuration not stated)
-2%	-1	u	-3	0.9	0	O=C1Cc2cc(NS(=O)(=O)c3ccc(F)cc3)cc3c2N1CCC3
-13%	-8	-57%[inhibitor]	-18	-1.9	-4	COc1cccc(CNc2nc3ccccc3n2C(C)C)c1O
-8%	-22	32%	-4	-7.5	0	CN(CCOc1ccc(Cl)cc1)CC(=O)Nc1ccc(OC(F)F)cc1
-7%	3	-12%[15.4 µM]	-1	-1.6	9	O=C(NNc1cc(Cl)cc(Cl)c1)c1c(F)cccc1Cl
12%	-2	0%	-2	-2.7	1	Cc1ccccc1NC(=O)CSc1nc2cc3c(cc2cc1C)CCC3
9%	3	11%	-10	0.1	-4	CN(c1ccccc1C(=O)Nc1cccc([N+](=O)[O-])c1)S(C)(=O)=O
-12%	-2	-17%	-5	-0.2	5	O=C(c1ccccc1)c1nn(-c2cccc(Cl)c2)ccc1=O
-18%	8	-16%	-20	-0.7	-3	CCc1noc(C)c1C(=O)Nc1ccc(Cl)c(S(=O)(=O)N2CCCCC2)c1
-13%	1	-29%	-8	2.7	1	CCOC(=O)N1CCN(S(=O)(=O)c2ccc(OCC(=O)OC)cc2)CC1
-14%	-7	u	-11	-2.2	1	Cc1ccc2c(C)c(C(=O)NCCc3ccco3)oc2c1C
0%	73	8%	-5	-4.3	-4	Cn1cc(C=O)c(-c2ccc3c(c2)OCCCO3)n1
-5%	-2	5%[15.4 µM]	-6	-0.4	1	CCOc1ccc(-c2nnn(CCC#N)n2)cc1OC
1%	3	-6%	-6	-3.7	0	O=C(COc1ncnc2ccccc12)N1CCN(C(=O)c2ccco2)CC1
5%	3	-35%[inhibitor]	-2	-0.8	-5	O=C(Nc1ccc(Nc2ccccc2)cc1)c1ccc(Br)cc1
1%	1	-14%	5	2.1	5	CCOCCn1ccc2c(OCC(=O)NCCc3ccc(OC)c(OC)c3)cccc2c1=O
-8%	-4	-1%	-6	-0.6	0	O=C(c1ccc(S(=O)(=O)c2ccccc2)cc1)N1CCc2ccccc2C1
-53%	11	22%[15.4 µM]	-5	9.2	-20	c1ccc(CCNc2ccnc3cc4ccccc4cc23)cc1
0%	6	20%	-8	0.0	x	COC(=O)[C@]1(C)CCC[C@@]2(C)C3CC[C@@]4(C)C[C@]3(CC[C@H]12)C[C@H]4O (some centres not stated)
8%	10	-16%[15.4 µM]	-3	-2.0	x	CN(CC(=O)O)c1ccc(C(F)(F)F)cc1[N+](=O)[O-]
-17%	-6	-70%[inhibitor]	-17	-1.8	4	CCc1ccc(S(=O)(=O)c2n[nH]n3c2nc(=O)c2ccccc23)cc1
x	-14	-75%[inhibitor]	-36	-2.1	-6	CCCCN(CCCNC(=O)c1ccc2c(c1)NC(=O)CN2C)c1ccccc1

# Of the compounds above, these have a COOH group:
gsp antagonist	Six1-Eya2 inh	gsp agonist	D2 potentiator	D2 agonist	CtBP-E1A inh	SMILES
2%	-8	-22%	-6	-1.9	-7	COc1cccc(NC(=O)Cn2c(CCC(=O)O)ccc2-c2cccs2)c1
-9%	-1	x	21	8.1	3	O=C(COc1ccc2c3c(c(=O)oc2c1)CCC3)N[C@@H](Cc1ccccc1)C(=O)O
8%	10	-16%[15.4 µM]	-3	-2.0	x	CN(CC(=O)O)c1ccc(C(F)(F)F)cc1[N+](=O)[O-]

# Other entries.
gsp antagonist	Six1-Eya2 inh	gsp agonist	D2 potentiator	D2 agonist	CtBP-E1A inh	SMILES
1%	-3	-17%[15.4 µM]	15	0.5	3	CCOc1cc(C(=O)Nc2ccc(C(=O)NCCN(CC)CC)cc2)ccc1OCC(=O)N1CCOCC1
-28%	-3	-4%[15.4 µM]	-3	3.3	-8	Cc1ccc(NC(=O)c2sc(N)nc2-c2ccccc2)cc1C
u	7	-41%[inhibitor]	0	-0.2	2	Cc1ccccc1OCCCCn1cnc2ccccc21
-15%	3	u	-1	-6.3	14	COc1ccc(C(C)=O)cc1CSc1ccc(S(=O)(=O)N2CCCCC2)cn1
11%	3	34%	-5	-2.1	-2	CC(=O)Cn1c(CN2CC(C)CC(C)C2)nc2c1c(=O)n(C)c(=O)n2C (configuration not stated)
2%	8	30%	-3	0.8	3	COC(=O)CC1c2cc(OC)c(OC)cc2CC(=O)c2cc(OC)c(OC)cc21 (configuration not stated)
9%	-10	-1%	4	-3.9	10	Cc1cc(C)nc(SC2CC(=O)N(c3ccc(Br)cc3)C2=O)n1 (configuration not stated)
2%	-6	-6%[15.4 µM]	-5	-2.9	0	CCOc1ccc(OCC)c(S(=O)(=O)N2CCOCC2)c1
6%	-2	-23%	-19	-3.1	8	CCCn1c(SCC(=O)NCCc2ccc(Cl)cc2Cl)n[nH]c1=O
-3%	0	11%	0	0.2	-19	CCN(C(=O)COC(=O)c1cccc2ccccc12)c1c(N)n(Cc2ccccc2)c(=O)[nH]c1=O
-18%	-8	-27%	-9	-4.1	x	C/C(=N\N=c1/sc2ccccc2n1C)c1ccccn1
3%	4	16%	-2	-1.0	1	CCCc1nn(CCc2ccccn2)c(N)c1CC
1%	0	15%[15.4 µM]	-3	-8.9	1	CCC(C(=O)NCCc1ccc(S(N)(=O)=O)cc1)c1ccccc1 (configuration not stated)
9%	-10	u	-13	-0.4	10	Cc1oc(-c2cccc(C(F)(F)F)c2)nc1CN1CCC[C@H]1CO
-10%	-1	7%	-22	-5.4	8	CC(=O)c1ccccc1NC(=O)CSCc1nc2sc(C)c(C)c2c(=O)[nH]1
-23%	-14	3%	-4	-3.8	-1	O=C(c1ccccc1)N1CCN2C(=O)c3ccccc3C12c1ccc(Cl)cc1 (configuration not stated)

# Whole records from above:
# O=C1CC(O)(C(F)F)Oc2ccc3ccccc3c21 (configuration not stated) in the list: gsp antagonist = -3%; Six1-Eya2 inh = 0; gsp agonist = -23%; D2 potentiator = 9; D2 agonist = -4.2; CtBP-E1A inh = 0
# CC(=O)c1ccccc1NC(=O)CSCc1nc2sc(C)c(C)c2c(=O)[nH]1 in the list: gsp antagonist = -10%; Six1-Eya2 inh = -1; gsp agonist = 7%; D2 potentiator = -22; D2 agonist = -5.4; CtBP-E1A inh = 8

# (cont.)
gsp antagonist	Six1-Eya2 inh	gsp agonist	D2 potentiator	D2 agonist	CtBP-E1A inh	SMILES
-6%	5	-39%[inhibitor]	-6	-6.7	0	COc1ccc(C(=O)N2CCC2)cc1S(=O)(=O)NCc1ccc(Cl)cc1
u	-4	-11%[15.4 µM]	-6	3.2	0	Cn1nc(C(=O)OCC(=O)Nc2ccc3ccccc3c2)c2ccccc2c1=O
-2%	-5	u	-1	-4.4	-4	O=C(Nc1nc(-c2nc3ccccc3s2)cs1)c1ccco1
x	6	-56%[inhibitor]	5	-7.0	-4	Cc1cn([C@H]2C[C@H](O)[C@@H](CNCc3ccc(Oc4cc(-n5cccn5)ncn4)cc3)O2)c(=O)[nH]c1=O
14%	1	-22%	4	-1.6	1	COc1ccc(N2C(=O)CCC2=O)cc1
10%	21	-3%	-4	-2.5	34	O=C(c1ccccc1)N1CCC(O)(c2ccc3c(c2)OCO3)CC1
-10%	2	-32%[inhibitor]	-10	11	x	CSc1nnc(-c2cccc(NC(=S)NN)c2)o1
-4%	6	-1%	-2	-3.8	3	O=C(CSc1n[nH]c(=O)[nH]c1=O)Nc1ccc(Br)cc1Br
6%	-4	9%	-51	-12	-6	N#CC1=C(N)C(C#N)(C#N)C(c2cccnc2)C2CN(C(=O)OCc3ccccc3)CC=C12 (configuration not stated)
